# Screens as filed in PubChem BioAssay.
# StopGo reporter: High Throughput Screening for Foot and Mouth Disease Virus Antivirals | Potency, µM (top dose mostly 57.9 µM), inactives show at the highest dose signal change, negative = less light | human cells with a luciferase reporter of 2A StopGo recoding; control for the full effect not named in the record | AID 1159524, 2015 | actives 1.2% (n = 410,000); active = well fitted falling curve with a large enough effect; inconclusive = small, poorly fitted or top-dose-only effect; inactive = no such curve, though single readings can be large or run the other way; tested in HEK293T cells; also: nearly all actives have a fitted effect of over 45% in size; luciferase light after 4 h
# RE007 growth inh: qHTS Assay for Inhibitors of the HIV-1 protein Vpr. S. pombe RE007 Vpr strain, BacTiter-Glo ATP luminescence, 24 h; control for the full effect not named in the record. Potency, µM (titrated, usually from 92.2 µM), without a hit: at the highest dose activity change, negative = less growth. actives 0.21% (n = 360,000); active = well fitted falling curve with a large enough effect; inconclusive = small, poorly fitted or top-dose-only effect; inactive = no such curve, though single readings can be large or run the other way;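 also: nearly all actives have a fitted effect of over 50% in size; the assay follows cell death caused by Vpr and the record does not say whether a fall means rescue or toxicity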
#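 Fission yeast RE007 carrying one integrated HIV-1 vpr copy, seeded at OD 0.01 in PMG+AL medium with 23 nL pinned compound. Grown 24 h at 30 degrees; viability read by BacTiter-Glo luminescence after 5 min.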
# * = called active by the depositor; ? = inconclusive; [ ] = another dose, or the depositor's remark. % is scaled to controls: 0 for no effect and ±100 for the full control effect; potency is read from the fitted curve at half-maximal effect.
SMILES,StopGo reporter,RE007 growth inh
Brc1ccc2nc(-c3ccccc3)c(Cc3ccccc3)n2c1,7.1%,12.5%
CC(=O)NCCc1ccc(C(=O)COC(=O)c2ccc(C)s2)cc1,33.2%[activator],4.1%
Cc1sc2ncnc(N3CCC(C(=O)NNC(=O)COc4ccc(Cl)cc4)CC3)c2c1C,-21.3%,-7.7%
COc1ccc(C(=O)N2CCCC2(C)C(=O)O)cc1C(F)(F)F (stereo not drawn),-13.0%,64.3%
COc1ccc(C(O)c2ncc(-c3cccc(C(F)(F)F)c3)[nH]2)cc1F (stereo not drawn),22.6%,-13.1%[18.4 µM]
COCC(=O)N(C)C[C@@H]1Oc2cc(Br)ccc2S(=O)(=O)N([C@H](C)CO)C[C@H]1C,-7.7%,-4.6%
Cc1cc(Cl)ccc1C(O)c1ncc(-c2ccccc2Cl)[nH]1 (stereo not drawn),25.8%,-9.0%
CC1=C(C(=O)N2CCOCC2)CC(CC(=O)NCc2cccs2)C(=O)N1CCCN1CCCC1=O (stereo not drawn),-9.3%,-6.8%
O=C(O)c1cc(-c2ccccc2)nn1CC1CC(c2cccc([N+](=O)[O-])c2)=NO1 (stereo not drawn),-19.0%,2.2%
CC1(C(=O)NCc2ccccc2)CSCC(=O)N1Cc1cccs1 (stereo not drawn),-11.7%,4.7%
CCCCCCCCN1C(=O)[C@H](CC(=O)N2CCN(C(=O)OCC)CC2)C[C@@]2(C(=O)OCC)CCCC=C12,-20.4%,-11.3%
O=C(NCc1cccnc1)c1cc(C2CCCCN2C(=O)CCCc2ccccc2)on1 (stereo not drawn),-29.6%,14.4%
Cc1ccc(S(=O)(=O)N2[C@H](CC(=O)Oc3ccccc3)OC[C@@H]2C(C)C)cc1,-8.5%,0.0%
C[C@H](NC(=O)C1CCN(S(=O)(=O)c2ccccc2)CC1)C(=O)NCc1cccnc1,-1.9%,-5.6%
CC(C)[C@@H]1O[C@H](CCc2ccccc2)CC2=C1C(=O)OC(C)(C)O2,?,0.7%
COC(=O)C1=C(c2ccccc2)C[C@@H]2CC[C@H]1N2C(=O)NCCO,-21.1%,0.3%
O=C1CCC2c3[nH]c4ccccc4c3CCN12 (stereo not drawn),-3.6%,-17.0%
COC(=O)[C@@]12C[C@@H](CC(=O)NCc3cccs3)C(=O)N(Cc3cccc4ccccc34)C1=CCC(C)(C)C2,-5.1%,8.5%
Cc1cc2nc(C3CCCCC3)c(Cc3ccsc3)n2c(C)c1Br,-27.9%,7.7%
Cc1cccc(C)c1-n1nnnc1C(CCc1ccccc1)N1CCC(n2c(=O)[nH]c3ccccc32)CC1 (stereo not drawn),10µM*,2.9%
Cc1ccccc1-c1cc2nc(Oc3ccc4c(c3)OCO4)n(C)c(=O)c2s1,-16.4%,-15.5%[18.4 µM]
COC(=O)/C=C/c1ccc2c(c1)S(=O)(=O)N(c1cccc(OC)c1)[C@H]2CC(=O)OC,20.6%,-3.0%
CC(C)N1CCC(C)(C(=O)Nc2cc(-c3ccccc3)nn2C)C1 (stereo not drawn),11.1%,-2.6%
CCN(CC)CCNC(=O)c1ccc(NC(=O)Cc2ccc(OC)c(S(=O)(=O)N3CCOCC3)c2)cc1,-8.5%,-10.6%
O=C(COc1ccc(Br)cc1)NNC(=O)Cc1ccc(S(=O)(=O)N2CCOCC2)s1,-24.1%,-7.9%
Fc1ccc(-c2nc3c4ccccc4ccn3c2Cc2ccccc2)cc1,-5.4%,-19.9%
Cc1ccc(C2=NOC(C)(c3nnc(-c4ccncc4)o3)C2)cc1 (stereo not drawn),-9.4%,12.8%
CCOc1ccc(/C=C/C(=O)N(CC)CC(=O)Nc2c(F)cccc2F)cc1OC,7.5%,2.5%
CN1C(=O)C(CC#N)(C2(CC#N)C(=O)N(C)c3ccccc32)c2ccccc21 (stereo not drawn),-9.7%,-4.9%
COc1cccc(CN2CCC(C)(Oc3cccc(Cl)c3)C2)c1OC (stereo not drawn),-17.6%,-6.8%
CC1=C(C(=O)N(C(C)C)C(C)C)CC(CC(=O)NCc2cccc3ccccc23)C(=O)N1CCCN1CCCC1=O (stereo not drawn),-5.0%,-8.5%
O=C(NS(=O)(=O)c1ccc2ccc(S(=O)(=O)NCCSc3ccccc3)cc2c1)c1cccc2ccccc12,-0.8%,15.5%
COCCn1c(=S)[nH]c2cc(C(=O)NC3CCCCC3C)ccc2c1=O (stereo not drawn),-24.3%,1.5%
CCOC(=O)[C@]12Cc3ccccc3[C@H]1N(C(C)C)C(=O)c1ccccc12,17.8µM*,-11.0%
CCN1C(=O)[C@H]2[C@@H](c3ccc(C(F)(F)F)cc3)N[C@]3(CCCN(Cc4ccco4)C3=O)[C@H]2C1=O,?,-6.5%
COc1cc(C(=O)N2Cc3ccccc3-n3nncc3C2)cc(OC)c1OC,-1.5%,-17.8%
CC1(C(=O)NS(=O)(=O)c2cccc(C#N)c2)CCN1C(=O)CC1CCCCC1 (stereo not drawn),-2.6%,5.8%
O=C(OCc1ccccc1)N1CCC2CC1c1cc(N3CCCCC3)ccc12 (stereo not drawn),31.6%[activator],-15.5%
c1ccc(Cc2c(-c3ccccc3)nc3c4ccccc4ccn23)cc1,36.0%[activator],-6.3%
C[C@H](CO)N1C[C@H](C)[C@@H](CN(C)Cc2ccccn2)Oc2ncc(Br)cc2C1=O,8.0%,-4.2%
CCc1nc2c(OCC(=O)C(C)(C)C)cccn2c1N(C)C(=O)c1cccs1,-7.8%,-12.3%
C#CCN1[C@@H]2CCN(C2)c2cc(Br)ccc2S1(=O)=O,-18.5%,-5.5%
CCOc1cc(N2CCOCC2)c(OCC)cc1NC(=O)COC(=O)c1c(C)noc1C,-24.0%,1.2%
CCOc1cc(C(=O)NCC(C)(C)CNC(=O)c2cc(OCC)c(OCC)c(OCC)c2)cc(OCC)c1OCC,-5.3%,6.0%
O=C(c1ccc(CS(=O)c2ccccc2Cl)o1)N1CCN(C2CCCCC2)CC1 (stereo not drawn),0.0%,-17.8%
CC1(C(=O)Nc2ccc3c(c2)OCO3)CCN1C(=O)CCc1ccc(Cl)cc1Cl (stereo not drawn),9.9%,6.6%
COC(=O)[C@]12CCCCC=C1N(Cc1ccccc1)C(=O)[C@H](CC(=O)N1CCCCC1)C2,-15.6%,1.3%
O=C(COc1cccc(C(F)(F)F)c1)Nc1cccc(S(=O)(=O)NC2=NCCCCC2)c1,?,-9.2%
C#CCNC(=O)C[C@@H]1C[C@@]2(C(=O)OCC)CCC=C2N(Cc2ccc(Cl)cc2Cl)C1=O,-5.1%,-10.0%
Cc1ccc(S(=O)(=O)N(C)c2ccc(C(=O)NCC(c3ccccc3)N3CCCC3)cc2)cc1 (stereo not drawn),-2.4%,-1.4%
O=C(OCC(O)C1OC(c2ccccc2)OC(COC(=O)c2ccccc2)C1O)c1ccccc1 (stereo not drawn),-16.0%,2.2%[18.4 µM]
COCCCNc1ccn2nc(-c3ccc(OCCN4CCOCC4)cc3)cc2n1,11.0%,-19.5%
O=C(NCc1cccc(C(F)(F)F)c1)C1CC2Cn3c(nc4ccccc43)C2N1Cc1ccccc1 (stereo not drawn),-2.1%,-12.0%
O=C(NCCc1ccccc1)C1Cc2c(-c3ccccc3)ccnc2O1 (stereo not drawn),-14.0%,6.7%
CN1CCN(C(=O)CCn2c(=S)[nH]c3ccccc3c2=O)CC1,3.8%,-14.1%
O=C(COC(=O)c1ccc(S(=O)(=O)N2CCCC2)cc1)Nc1ccccc1Cl,70.4%[activator],9.9%
COc1c(C)cc(C(O)c2ncc(-c3ccccc3C)[nH]2)cc1C (stereo not drawn),-0.7%,-21.1%[18.4 µM]
COc1c(C)cc(C(O)c2ncc(-c3ccc(C(F)(F)F)cc3)[nH]2)cc1C (stereo not drawn),-22.6%,0.5%[18.4 µM]
CC(=O)Nc1cc(-c2cccc(NS(C)(=O)=O)c2)cn2c(-c3ccccc3)cnc12,-6.8%,-5.5%[18.4 µM]
CC(=O)Nc1cccc(-c2csc(C(NC(C)=O)c3ccc(F)c(F)c3)n2)c1 (stereo not drawn),6.2%,-1.2%

# Next results
SMILES,StopGo reporter,RE007 growth inh
O=C(CCSc1nc(-c2ccccc2)c(-c2ccccc2)o1)N1CCCCC1,-16.9%,3.2%
COCOc1cc(O)c(C(=O)/C=C/c2ccc(OCOC)c(OCOC)c2)c(OCOC)c1,-19.6%,-9.0%
O=c1[nH]cc(CCCc2ccccc2)c(=O)[nH]1,9.5%,11.1%
CCOC(=O)CCC1(C(=O)OC)C(=O)CCCCCC=C1C(=O)OC (stereo not drawn),0.4%,-1.9%
COC(=O)C1=C(c2ccc(S(C)(=O)=O)cc2)C[C@@H]2CC[C@H]1N2C(=O)NCc1ccc(C(F)(F)F)cc1,-6.2%,-10.6%
Cc1cc(Cl)ccc1C(O)c1ncc(-c2ccc(C(F)(F)F)cc2)[nH]1 (stereo not drawn),-13.3%,7.6%[18.4 µM]
Cc1ccc(CN2C(=O)C(C)Sc3ccc(C#N)cc32)cc1 (stereo not drawn),-16.9%,2.7%
O=C(NCc1ccc(F)cc1)c1cc(C2CCCN(C(=O)c3cccs3)C2)on1 (stereo not drawn),-22.8%,3.8%[18.4 µM]
CCc1nc2c(OCC(N)=O)cccn2c1N(C)C(=O)c1cccs1,-4.4%,8.8%
COc1ccc(OCCN2CCC(C(=O)NC(C)c3cccc4ccccc34)CC2)cc1 (stereo not drawn),-18.9%,8.3%
O=C(Nc1ccc2c(c1)OCO2)c1ccc2nc([C@@H]3O[C@H](CO)[C@H](O)[C@H](O)[C@H]3O)[nH]c2c1,0.0%,-12.3%
CCc1nc2ccc(C(=O)N3CCN(S(=O)(=O)CC)CC3)cn2c1N(C)C(=O)C1CCCCC1,-17.3%,-14.8%
O=C(NCc1ccccc1)C(c1ccccc1F)n1c(=O)c(-c2cc3ccccc3[nH]2)nc2ccccc21 (stereo not drawn),-7.4%,8.7%
CCC(CO)Nc1ccn2nc(-c3cccs3)cc2n1 (stereo not drawn),28.0%,4.5%
COc1ccc(Br)cc1/C=N/NS(=O)(=O)c1ccccc1,8.8%,-5.8%

# Structural class: the compounds so far with bromine (7)
SMILES,StopGo reporter,RE007 growth inh
Brc1ccc2nc(-c3ccccc3)c(Cc3ccccc3)n2c1,7.1%,12.5%
COCC(=O)N(C)C[C@@H]1Oc2cc(Br)ccc2S(=O)(=O)N([C@H](C)CO)C[C@H]1C,-7.7%,-4.6%
Cc1cc2nc(C3CCCCC3)c(Cc3ccsc3)n2c(C)c1Br,-27.9%,7.7%
O=C(COc1ccc(Br)cc1)NNC(=O)Cc1ccc(S(=O)(=O)N2CCOCC2)s1,-24.1%,-7.9%
C[C@H](CO)N1C[C@H](C)[C@@H](CN(C)Cc2ccccn2)Oc2ncc(Br)cc2C1=O,8.0%,-4.2%
C#CCN1[C@@H]2CCN(C2)c2cc(Br)ccc2S1(=O)=O,-18.5%,-5.5%
COc1ccc(Br)cc1/C=N/NS(=O)(=O)c1ccccc1,8.8%,-5.8%

# (next part)
SMILES,StopGo reporter,RE007 growth inh
CC(=O)c1cccc(-c2ccnc3c2CC(C(=O)Nc2ccc(Cl)cc2)O3)c1 (stereo not drawn),?,1.9%
C[C@H]1CN([C@@H](C)CO)C(=O)c2cc(C#CCC3CCCC3)cnc2O[C@@H]1CN(C)C(=O)CC1CC1,15.5%,-17.4%
COc1ccccc1Cc1c(-c2ccc(C)cc2)nc2ccc(Br)cn12,-15.6%,-10.1%
Nc1nonc1-n1nnc(C(=O)N/N=C/c2ccccc2F)c1CN1CCOCC1,-16.6%,-3.0%
O=C(NCc1cccnc1)c1cc(C2CCCCN2C(=O)OCCF)on1 (stereo not drawn),-11.0%,2.3%
CC(C)c1ccc(Nc2nc(N3CCOCC3)nc(N3CCOCC3)n2)cc1,?,-0.4%
CC1=C(C(=O)N2CCCCCC2)CC(CC(=O)NC2CCCCC2)C(=O)N1Cc1ccc(C(C)(C)C)cc1 (stereo not drawn),-17.5%,9.6%
NC[C@H]1O[C@@H](n2ccc(N)nc2=O)[C@H](O)[C@@H]1O,-13.0%,5.3%
Cc1ccc(-n2c(-c3ccc(Br)cc3)n[nH]c2=S)c(C)c1,-3.4%,10.8%
CCOC(=O)CCCCCC(=O)Nc1ccc2c(c1)C(=O)N([C@@H](C)CO)C[C@H](C)[C@H](CN(C)C(=O)c1ccccc1)OCCCC[C@H](C)O2,-17.8%,-28.2%
COc1ccccc1CC1(C)C(=O)Nc2ccc(OC(F)(F)F)cc21 (stereo not drawn),?,37.7%
CSc1ccc(CNC(=O)C2(C)CCCN2C)cc1 (stereo not drawn),-9.3%,-17.7%[18.4 µM]
CN(C)c1ncnc2c1ncn2[C@H]1CN(C2CCCC2)C[C@@H](CO)O1,-15.8%,8.2%
NC(CCc1ccccc1)c1csc(NC(=O)NCC2CCCCC2)n1 (stereo not drawn),0.0%,6.7%
CC1CCN(C(=O)c2[nH]c(C(F)(F)F)nc2-c2ccccc2)CC1,9.0%,7.9%
CN(C1CCCCC1)S(=O)(=O)c1ccc(SCC(N)=O)nc1,-10.9%,4.0%

# Not a retest: entries from further up.
SMILES,StopGo reporter,RE007 growth inh
O=C(NCc1cccnc1)c1cc(C2CCCCN2C(=O)OCCF)on1 (stereo not drawn),-11.0%,2.3%
CC(C)c1ccc(Nc2nc(N3CCOCC3)nc(N3CCOCC3)n2)cc1,?,-0.4%
CC1=C(C(=O)N2CCCCCC2)CC(CC(=O)NC2CCCCC2)C(=O)N1Cc1ccc(C(C)(C)C)cc1 (stereo not drawn),-17.5%,9.6%

# The list is partial, so the mix of outcomes need not match the whole.
